# Source: PubChem (ICCB-Longwood Screening Facility, Harvard Medical School)
# VACV E9 pol inh: vaccinia E9 polymerase processive synthesis inhibitors, primary screen, biochemical, absorbance; in vitro processive DNA synthesis, absorbance read-out; stronger effect = lower value; some inactives read as strong as hits; Vaccinia virus DNA polymerase (E9) processive complex; normalized absorbance, % (no concentration beside the values); actives 0.94% (n = 46,000);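 active = replicate mean up to 90% and picked by the depositor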;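 note: 100% = median of the test wells of a plate; 100 nL library stock went into each well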
# * marks the source's active call; other numbers are inactive results. Only part of the results is shown, so the mix of outcomes need not match the whole.
canonical_smiles	VACV E9 pol inh
COC(=O)c1cc(S(=O)(=O)N2CCOCC2)oc1C	101.4
O=c1oc2ccccc2n1CCCOc1ccc2ccccc2c1	104.0
COc1cc(/C=C2/SC(=S)NC2=O)ccc1OC(=O)c1cccc(C)c1	100.0
O=C(O)CCC(=O)Nc1ccc(Cl)cc1	101.9
CC1C/C(=C\c2ccccn2)C(=O)/C(=C/c2ccccn2)C1 (stereo not drawn)	97.6
CC1CCc2ccccc2N1S(=O)(=O)c1cccs1 (stereo not drawn)	100.5
O=C(CCSc1nccn1Cc1ccccc1)NC1CCCCC1	100.3
Cc1cccc(S(=O)(=O)NCc2ccccc2)c1	95.0
O=C(Nc1ncnc2sc3c(c12)CCCC3)C(F)(F)F	88.6
CC[C@]12CCCN3CCc4c(n(c5ccccc45)C(=O)C1)[C@@H]32	100.3
O=C(O)C1CC(=O)N(CCc2ccccc2)C(=NCCc2ccccc2)S1 (stereo not drawn)	100.0
CCOC(=O)c1ccc(NC(=S)NCCN2CCNC2=O)cc1	97.5

# (cont.)
canonical_smiles	VACV E9 pol inh
CN(C(=O)Oc1cccc2cccnc12)c1ccccc1	100.1
CSc1nc2ccc(NC(=O)c3cc(=O)c4ccccc4o3)cc2s1	100.9
CC(C)(C)c1ccc(CS(=O)(=O)CCOc2ccccc2)cc1	108.3
CCc1ccc(S(=O)(=O)/N=C2/C=C(Nc3ccccc3)C(=O)c3ccccc32)cc1	100.8
CCCCC(C)/C=C(C)/C=C(\C)C(=O)NC1=CC(O)(/C=C/C=C/C=C/C(=O)NC2=C(O)CCC2=O)C2OC2C1=O (stereo not drawn)	98.9
CCn1c(C)nnc1SCc1ccccc1	95.9
Cn1c(=O)c2[nH]c(C3CCCC3)nc2n(C)c1=O	99.0
CC1CCN(S(=O)(=O)c2ccc3nc(-c4ccccn4)cc(C(=O)NC4CCCC4)c3c2)CC1	99.6
CC(=O)OCc1cnn(-c2ccccc2)n1	99.6
O=S1(=O)CC=C(S(=O)(=O)c2ccc(Cl)cc2)C1	101.2
CCOC(=O)CSc1nnc(CSc2nc3ccccc3s2)n1C	100.2
CC12C(=O)N(c3cccc(C(=O)O)c3)C(=O)C1C1C=CC2C1 (stereo not drawn)	99.9

# More results
canonical_smiles	VACV E9 pol inh
N=C(N)Sc1cn(Cc2ccccc2)c2ccccc12	103.2
COc1ccc(N2C(=O)CSC2c2cccc(OC)c2OC)cc1 (stereo not drawn)	100.7
Cc1cc(C)c(C#N)c(SCC(=O)c2c(C)[nH]c3ccccc23)n1	98.2
O=C(O)CCN1CN(CCC(=O)O)c2ccccc21	98.7
O=C(COc1ccc(Cl)cc1)OCC(=O)N1CCCC1	102.8
CC1CCC2(OC1)OC1CC3C4CC[C@H]5C[C@@H](O)CC[C@]5(C)C4CC(=O)[C@]3(C)C1C2C (stereo partly drawn)	99.5
COC(=O)CC1(C)OCC2(CC=C(C)CC2)CO1 (stereo not drawn)	103.5
O=C(O)[C@@H]1CSC(c2coc3ccccc3c2=O)N1 (stereo partly drawn)	86.5
Cc1ccc(-c2cc(C(=O)c3nccn3C)c3ccccc3n2)cc1	97.3
O=c1[nH]c(-c2cccnc2)nc2sc3c(c12)CCCC3	85.5
O=C(NCc1ccccc1)c1nc2ncccn2n1	107.7
O=C(NC1CCCCCCC1)c1cccs1	97.4

# More compounds follow.
canonical_smiles	VACV E9 pol inh
CCOC(=O)c1c(C)n(CC)c2ccc(OC)cc12	99.4
O=C(Nc1ccccc1)N1CCc2sccc2C1c1ccc(C(F)(F)F)cc1 (stereo not drawn)	99.9
CCc1ccc(C(=O)Nc2cc(C)nn2-c2nc3ccccc3s2)cc1	94.5
C=CCN1C(=O)/C(=C/c2c(NCC)nc3ccccn3c2=O)SC1=S	99.9
COc1ccccc1NC(=O)CSc1ncnc2ccccc12	99.7
O=C(NCc1nnc(SCC(=O)N2CCCCC2)o1)c1cccs1	101.4
CC1(C)CC(=O)C2=C(C1)Nc1ccccc1NC2c1ccccc1 (stereo not drawn)	101.9
Cc1cc(C)c(SCC(=O)NCc2ccc3c(c2)OCO3)c(C)c1	94.4
COc1cc(C(F)(F)F)cc(C(F)(F)F)c1C(=O)NCc1cccs1	101.0
C/C(=N\O)c1ccccc1O	107.8
CC(C)C(=O)N1CCCCCC1	93.8
Cc1ccc(-c2nc3ccccc3s2)cc1	70.7*

# Remaining list, next part
canonical_smiles	VACV E9 pol inh
N#Cc1cccn1-c1ncc(C(F)(F)F)cc1Cl	92.2
COC(=O)C[C@H](NC(=O)[C@H](C)NC(=O)[C@@H](NC(=O)OCc1ccccc1)C(C)C)C(=O)CF	101.2
CO[C@@]12[C@@H]3NC3CN1C1=C(C(=O)C(N)=C(C)C1=O)[C@@H]2COC(N)=O (stereo partly drawn)	100.3
Nc1c(Cl)cc(Cl)cc1C(=O)NO	84.5
COC(=O)C(C)N(C(=O)c1c(F)cccc1F)c1c(C)cccc1C (stereo not drawn)	100.2
CC(=O)N1C(=S)NC(=O)/C1=C\c1ccc(C(C)C)cc1	99.7
CCOCC(=O)OCc1ccc(Cl)cc1	103.3
Clc1cc(Cl)cc(OCc2nc(-c3cc(-c4ccccc4)no3)cs2)c1	100.8
CC1CCN(C(=O)COC(=O)COc2ccccc2-c2ccccc2)CC1	101.6
COc1cc(NC(=O)C2CCCN2C(=O)C2CCC(C)CC2)cc(OC)c1OC (stereo not drawn)	104.0
C/C=C/C/C=C/CCC(=O)[C@H]1O[C@H]1C(N)=O	100.8
COC(=O)c1csc(S(=O)(=O)N=S(C)(=O)c2cccs2)c1OC (stereo not drawn)	98.5

# Reformatted as labelled records: part of the list above.
structure: Nc1c(Cl)cc(Cl)cc1C(=O)NO
  VACV E9 pol inh: 84.5

structure: COC(=O)C(C)N(C(=O)c1c(F)cccc1F)c1c(C)cccc1C (stereo not drawn)
  VACV E9 pol inh: 100.2

structure: CC(=O)N1C(=S)NC(=O)/C1=C\c1ccc(C(C)C)cc1
  VACV E9 pol inh: 99.7

structure: CCOCC(=O)OCc1ccc(Cl)cc1
  VACV E9 pol inh: 103.3

# The results go on:
canonical_smiles	VACV E9 pol inh
c1cc(-c2nnn(C3CCCCC3)c2NC2CCCCC2)[nH]n1	100.5
Cc1ccc(OC(=O)c2cc(S(=O)(=O)N3CCCC3)ccc2C)cc1C	100.0
CCOC(=O)CN1N=C(c2ccc(Cl)cc2)CCC1=O	106.2
COc1ccc(-n2cnc3cc(C(=O)N4CCOCC4)ccc32)cc1	97.1
CC(CC(=O)O)n1nnc2ccccc21 (stereo not drawn)	103.2
Cc1cccc(NC(=O)C(CC(C)C)NS(=O)(=O)c2ccc3c(c2)oc(=O)n3C)c1 (stereo not drawn)	106.9
CN(C)/C=C1/C(=O)c2sccc2N(C)S1(=O)=O	109.8
COc1ccc(Cl)c(NCCC(=O)O)c1	99.6
O=C(NCc1ccccc1Cl)C1=CSCCO1	91.2
O=C(COC(=O)c1ccccc1O)NC12CC3CC(CC(C3)C1)C2	97.0
Cc1ccccc1C(=O)Nc1ccccc1	97.0
Cc1ccc(-c2nc(NC(=O)C(C(C)C)N3C(=O)c4ccccc4C3=O)sc2C)cc1 (stereo not drawn)	98.9

# New compounds follow.
canonical_smiles	VACV E9 pol inh
Cc1cc(C)c2c(-n3cccc3)nn(CC#N)c2n1	92.8
O=C(CSc1nnc(-c2ccncc2)n1-c1ccccc1)c1ccccc1	113.4
O=C(CN1CCN(Cc2ccc(Cl)cc2)C1=O)NCC1COc2ccccc2O1 (stereo not drawn)	102.4
CCC1(C)N([O-])C(C)=C(c2ccccc2)[N+]1=O (stereo not drawn)	100.2
Cc1c(-c2ccccc2)cc2ccccn12	96.0
COc1ccc(N2C(=O)/C(=C\C=C\c3ccccc3)SC2=S)cc1	100.2
Cc1cccc(NC(=O)c2cnc3sccn3c2=O)c1	103.7
COC(=O)c1ccc(CSc2nccn2C)cc1	99.2
O=C(NC12CC3CC(CC(C3)C1)C2)C(F)(F)F	96.7
Cc1cc(C)n(-c2ncccc2C(F)(F)F)n1	107.4
Oc1ccc(-c2[nH]ncc2-c2cccc3cccnc23)c(O)c1	96.8
CCN=C1SC(CC(=O)Nc2cccc(C(=O)O)c2)C(=O)N1CC (stereo not drawn)	98.7

# (more compounds)
canonical_smiles	VACV E9 pol inh
CCOC(=O)c1c[nH]c2c(C(=O)OC)cccc2c1=O	92.2
CC(C)CN(CC(C)C)C(=O)CCN1C(=O)c2ccccc2C1=O	100.0
O=C(NCCO)c1ccc(CSc2nc3sc4c(c3c(=O)[nH]2)CCC4)cc1	98.9
CCCN1CCc2c(sc(NC(=S)NC(=O)c3ccccc3)c2C#N)C1	99.7
O=C(N1CCCc2ccccc21)N1c2ccccc2Sc2ccccc21	100.3
O=C(/C=C/c1cccc(Br)c1)N1CCc2ccccc21	105.7
CC1CCN(Cc2cn3c(-c4ccc(Br)cc4)nnc3s2)CC1	95.7
CCOC(=O)N1CCc2c(sc(NCc3cccnc3)c2C(=O)Nc2ccc(OC)cc2OC)C1	91.5
CN(C)Cc1ccc(C(=O)Oc2ccc(C(C)(C)C)cc2)cc1	96.0
CCOC(=O)c1cc(-c2nnc(-c3cccc(C)c3)o2)c(C)nc1C	99.8
CC1=NN(C(N)=S)C(=O)C1	94.8
Cc1cc(F)c(F)c(C(=O)n2ccnc2)c1Cl	100.7

# Going on with the list:
canonical_smiles	VACV E9 pol inh
Cc1nn(CC(=O)c2ccc(Br)cc2)c(N)[n+]1C	100.2
CC(=O)n1cc(-c2c(O)c3ccccc3oc2=O)c2ccccc21	99.8
CC(C)C(=O)N=C1SC2CS(=O)(=O)CC2N1CCc1ccccc1 (stereo not drawn)	104.9
Cc1ccc(C2(CC(=O)Nc3ccccc3C)CCOC(C)(C)C2)cc1 (stereo not drawn)	96.1
COc1cccc(NCc2ccc(O)c3ncccc23)c1	95.7
O=C(NCN1CCN(Cc2ccccc2)CC1)c1ccccc1	99.9
COC(=O)N1CCC(=O)Nc2ccccc21	100.0
Fc1ccc(/C=N/c2nnc3nc[nH]n23)cc1	100.7
Clc1ccc(/C=N/N2CCCCC2)cc1	105.8
Cc1ccc(Cl)cc1NC(=O)Cn1cnc2c(cnn2C)c1=O	103.5
Cc1ccccc1-c1nc2cc(NC(=O)c3cccc(F)c3)ccc2o1	99.8
COc1ccc(CC(=O)Nc2c[nH]c(=O)[nH]c2=O)cc1OC	95.0

# Next part:
canonical_smiles	VACV E9 pol inh
N#Cc1ccc(COc2cnc3ccccc3n2)cc1	101.9
CN=C(C)c1c(O)c2ccccc2oc1=O	100.6
CCOC(=O)c1nc[nH]c1C(=O)OCC	94.7
COc1ccc(CCNC(=O)CSc2nc3ccc(C)cc3[nH]2)cc1	103.7
CCOc1ccc2nc(NCCO)[nH]c2c1	91.2
CCCCN(Cc1ccco1)C(=O)Cn1ncc2c1-c1cc(C)ccc1OC2	100.5
CC1CN(CC(O)COc2ccc(C(C)C)cc2)CC(C)O1 (stereo not drawn)	91.7
CNC(=O)N1CCCC(Cn2cccc2)C1 (stereo not drawn)	105.5
CCC(=O)NCc1ccc2[nH]c3c(c2c1)CCCC3	100.9
CCC(Sc1nc2cc(OC)c(OC)cc2c(=O)n1Cc1ccco1)C(=O)Nc1ccc(C)cc1 (stereo not drawn)	83.1
CCOc1ccc(Nc2nc3cc(C)ccc3cc2C)cc1	98.7
O=C(CC(=O)c1ccccc1)Nc1cccc(C(=O)O)c1	100.6

# Next results.
canonical_smiles	VACV E9 pol inh
N#Cc1ccc(C(=O)N2CCCC2)cc1	102.9
CCC(=O)N1CCc2cc(Br)cc(S(=O)(=O)C3(C(=O)OC)CC3)c21	93.0
NNc1nc2c3c(ccc2s1)CCCC3	93.0
COC(=O)c1c(NC(=O)COc2ccc(OC)cc2)sc2c1CCCC2	120.0
Cc1ccc(C(=O)/C=C2/NCCNC2=O)cc1	107.0
COC(=O)/C=C/c1ccc(SC)cc1	97.2
COc1ccc(C(=O)CSc2nnc3n2CCCCC3)cc1	100.5
O=C(CCN(Cc1ccco1)S(=O)(=O)c1ccc(Cl)cc1)Nc1ccc(Cl)cc1	87.4
COC(=O)c1ccccc1NC(=S)Nc1ccccn1	99.2
Oc1ccccc1CNCC12CC3CC(CC(C3)C1)C2	102.0
CC1Cc2nc(SC/C=C/c3ccccc3)n(C)c(=O)c2S1 (stereo not drawn)	94.9
COC(=O)c1cc2ccc(OC)c(OC)c2c(=O)s1	99.9

# More entries.
canonical_smiles	VACV E9 pol inh
O=C(Nc1cc(Cl)ccc1Cl)C1COc2ccccc2O1 (stereo not drawn)	98.8
CCC(C)NC(=O)c1ccc2c(Cl)c3c(nc2c1)CCC3 (stereo not drawn)	102.3
CCOC(=O)C1C(=O)NC2(C)Oc3ccccc3C1C2C (stereo not drawn)	100.6
Cc1ccc(CSCCC(=O)N2CCN(c3cccc(C)c3C)CC2)cc1	89.9
CSc1ncc(C(=O)O)c(C(F)(F)F)n1	96.7
COc1ccc(N2C(=O)C=C(c3ccc(F)cc3)C2/C=N/O)cc1 (stereo not drawn)	99.8
O=C1Nc2ccccc2C1(O)C/C(=N/O)c1ccco1 (stereo not drawn)	100.8
COc1ccc(-c2ccc(OC)cc2C(=O)NN)cc1	100.7
N=c1c[n+](CCc2ccccc2)[n-]o1	100.1
S=c1nc2c(n[nH]1)c1ccccc1n2Cc1ccccc1	95.4
O=C1CSCC(=O)N1c1ccc(Cl)cc1C(F)(F)F	86.0
CCOC(=O)C1=CS/C(=C2/C(=S)C(C)(C)N(C(=O)CC(C)C)c3ccc(OCC)cc32)S1	98.9

# (list continues)
canonical_smiles	VACV E9 pol inh
CC(C)N(Cc1ccccc1)C(=O)c1ccc2nsnc2c1	99.4
Cc1c(CCNC(=O)c2cc(S(=O)(=O)N(C)C)c(Cl)cc2Cl)c2ccccc2n1C	100.6
CC[C@H](C)C(=O)O[C@H]1C[C@@H](C)C=C2C=C[C@H](C)[C@H](CC[C@@H]3C[C@@H](O)CC(=O)O3)[C@H]21	100.1
O=C(Nc1ccc(S(=O)(=O)N2CCCCC2)cc1)C1CC1	117.9
COC(=O)CC1SC(=O)NC1=Nc1ccc(C)cc1 (stereo not drawn)	101.6
